Six1-Eya2 blk = blocks human Six1 binding to Eya2; Q15475+O00167; AlphaScreen GST-Six1/His-Eya2 binding, biochemical; hits give low values; control for the full effect not named in the record; activity change, % (no concentration beside the values); 360,000 tested, 0.56% active; AID 651725; in the data active = activity change below about -65%; inconclusive = about -30% to -65%; inactive = above about -30%; note: compound concentration not given in the record
Target sequence (O00167 whole entry, looked up): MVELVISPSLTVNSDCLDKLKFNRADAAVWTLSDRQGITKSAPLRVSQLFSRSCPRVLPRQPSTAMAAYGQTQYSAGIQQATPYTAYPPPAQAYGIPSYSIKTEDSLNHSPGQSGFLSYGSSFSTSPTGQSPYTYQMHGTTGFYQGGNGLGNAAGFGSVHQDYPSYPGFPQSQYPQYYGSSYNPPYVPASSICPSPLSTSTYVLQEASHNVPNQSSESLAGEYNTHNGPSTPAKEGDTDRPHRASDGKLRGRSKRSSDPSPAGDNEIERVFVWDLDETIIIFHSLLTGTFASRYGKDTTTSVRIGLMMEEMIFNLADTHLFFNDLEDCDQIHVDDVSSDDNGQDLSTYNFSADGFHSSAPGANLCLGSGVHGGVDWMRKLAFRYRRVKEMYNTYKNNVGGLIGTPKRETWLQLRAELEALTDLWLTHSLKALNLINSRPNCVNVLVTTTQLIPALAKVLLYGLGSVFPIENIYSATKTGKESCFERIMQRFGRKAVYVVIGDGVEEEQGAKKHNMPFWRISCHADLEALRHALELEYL
Target sequence (Q15475 whole entry, looked up): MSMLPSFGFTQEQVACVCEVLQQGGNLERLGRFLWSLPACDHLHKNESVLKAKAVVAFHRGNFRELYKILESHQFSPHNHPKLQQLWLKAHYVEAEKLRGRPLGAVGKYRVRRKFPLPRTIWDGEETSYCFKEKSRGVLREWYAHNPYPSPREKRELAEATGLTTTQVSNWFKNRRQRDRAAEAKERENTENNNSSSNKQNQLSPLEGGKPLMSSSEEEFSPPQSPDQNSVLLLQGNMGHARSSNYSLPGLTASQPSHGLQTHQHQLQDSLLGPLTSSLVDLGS
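Six1/Eya2 binding was read as AlphaScreen signal after compounds were pinned into GST-Six1 plus His-tagged Eya2 (5X stock 250/500 nM) in pH 8.0 Tris/NaCl/TCEP buffer, beads added, then incubated 1 h, 37 C, dark.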
Starred values were filed as active, the others as inactive; ? = inconclusive. % is set by controls: 0 for no effect and ±100 for the full control effect. Some of the compounds tested (hit frequency here may not be typical).

SMILES | Six1-Eya2 blk
CC1(C(=O)NCc2ccccc2)CSCC(=O)N1CCOc1ccccc1 (stereo not given) | 3
O=C(NC1CCCC1)C(C1CC1)n1c(-c2ccccn2)nc2ccccc21 (stereo not given) | -1
COC(=O)C[C@H]1C=C[C@@H](NC(=O)Nc2cccc(OC)c2)[C@@H](CO)O1 | 2
Cc1ccccc1CN1C(=O)CN(S(C)(=O)=O)CC1(C)C(=O)Nc1ccc2c(c1)OCCO2 (stereo not given) | 2
COc1cc(N(C)C)ccc1[C@]1(O)C(=O)N(C)c2ccc(Br)cc21 | -18
COC(=O)C[C@H]1CC[C@@H](NC(=O)c2ccncc2)[C@@H](CO)O1 | 4
CSCCC(c1nc2ccccc2[nH]1)n1c(=O)c(-c2cccnc2)nc2ccccc21 (stereo not given) | 6
COC(=O)C(C(=O)OC)c1ccccc1CNS(=O)(=O)c1ccc(C)cc1 | 13
O=C(NCc1ccccc1)C1C(=O)Nc2ccccc2C(=O)N1C1CCCC1 (stereo not given) | 12
CN1CCN(C(=O)C[C@@H]2C=C[C@H](NS(=O)(=O)c3cccc(F)c3)[C@@H](CO)O2)CC1 | -2
CC(C)(C)NC(=O)C(c1cccc2ccccc12)n1c(=O)c(-c2cc3ccccc3[nH]2)nc2ccccc21 (stereo not given) | 46
COC(=O)C[C@@H]1C=C[C@@H](NC(C)=O)[C@@H](CO)O1 | 17
Nc1nc2ccc(Cl)cc2cc1C(=O)NCCc1ccc(O)cc1 | 0
O=C(NCc1ccccc1)C(c1ccc(-c2ccccc2)cc1)N1CCN(c2ccccc2F)CC1 (stereo not given) | 2
Cc1cccc(C)c1NC(=O)C(c1ccncc1)n1c(=O)c(-c2ccco2)nc2ccccc21 (stereo not given) | -5
COC(=O)[C@@]12C[C@@H](CC(=O)NCCCCc3ccccc3)C(=O)N(Cc3cccc4ccccc34)C1=CCC(C)(C)C2 | -10
O=C(C[C@@H]1C=C[C@@H](NC(=O)c2cccnc2)[C@@H](CO)O1)NCc1ccncn1 | -3
COC(=O)[C@@]12C[C@@H](CC(=O)N3CCCCC3)C(=O)N(Cc3ccccc3)C1=CCC(C)(C)C2 | -11
CCC(CC)C(C(=O)NC1CCCC1)N1CCN(c2cc(C)nc3ccccc23)CC1 (stereo not given) | 0
Oc1ccc(F)c(CN2CCN(c3ncc(Cc4ccccc4)cn3)CC2)c1 | -8
COC(=O)[C@]12CCCCC=C1N(CCc1ccc(OC)c(OC)c1)C(=O)[C@H](CC(=O)N1CCN(C(=O)c3ccco3)CC1)C2 | 0
COc1ccc(C(C(=O)NCc2ccccc2)n2c(-c3ccccn3)nc3ccccc32)cc1 (stereo not given) | -6
CCOC(=O)C[C@@H]1OC[C@H](C)N1S(=O)(=O)c1ccc(C)cc1 | 10
CCCCNC(=O)C1C(c2ccc(OC)cc2)=Nc2ccccc2N1C(=O)Cc1cc(OC)cc(OC)c1 (stereo not given) | -5
Cc1ccc(S(=O)(=O)N2[C@H](CC(=O)OCc3ccccc3)OC[C@@H]2C(C)C)cc1 | 0
COC(=O)C1(C(=O)OC)c2ncccc2N(S(=O)(=O)c2ccc(C)cc2)C1CC(=O)c1ccccc1 (stereo not given) | -3
Nc1nc2ncccn2c1-c1ccccc1 | 4
Cc1cccc(C)c1NC(=O)C(CCc1ccccc1)n1c(=O)c(-c2ccccc2)nc2ccccc21 (stereo not given) | 1
O=C(NCc1ccccc1)C1C(c2ccc3c(c2)OCO3)=Nc2ccccc2N1C(=O)c1cccc(C(F)(F)F)c1 (stereo not given) | -10
CC(C)c1cn(CC[C@@H]2CC[C@H](NS(=O)(=O)c3ccc(F)cc3)[C@@H](CO)O2)nn1 | -1

In another format: 5 of the compounds above.
mol	Six1-Eya2 blk
CC(C)c1cn(CC[C@@H]2CC[C@H](NS(=O)(=O)c3ccc(F)cc3)[C@@H](CO)O2)nn1	-1
COC(=O)C1(C(=O)OC)c2ncccc2N(S(=O)(=O)c2ccc(C)cc2)C1CC(=O)c1ccccc1 (stereo not given)	-3
O=C(C[C@@H]1C=C[C@@H](NC(=O)c2cccnc2)[C@@H](CO)O1)NCc1ccncn1	-3
COc1ccc(C(C(=O)NCc2ccccc2)n2c(-c3ccccn3)nc3ccccc32)cc1 (stereo not given)	-6
CCCCNC(=O)C1C(c2ccc(OC)cc2)=Nc2ccccc2N1C(=O)Cc1cc(OC)cc(OC)c1 (stereo not given)	-5

Additional records follow:
SMILES | Six1-Eya2 blk
O=C1Nc2ccccc2-n2nnnc2C1N1CCN(C(=O)C2CCCO2)CC1 (stereo not given) | -2
CCCCNC(=O)C(NC(=O)c1cccnc1OC)C(=O)c1ccccc1 (stereo not given) | 5
CCCCCCCCN1C(=O)[C@H](CC(=O)NCCc2ccccc2OC)C[C@@]2(C(=O)OC)CC(C)(C)CC=C12 | 2
COc1ccc(C(C(=O)NC2CCCC2)n2c(Cc3cc(F)cc(F)c3)nc3ccccc32)cc1 (stereo not given) | -4
CN(CCc1ccccc1)C(C(=O)c1ccc2c(c1)OCO2)c1nnnn1-c1ccccc1NC(=O)OC(C)(C)C (stereo not given) | -6
CC1(C(=O)NCc2ccccc2)CSCC(=O)N1Cc1cccc(F)c1 (stereo not given) | 13
O=C(NC1CCCC1)C(c1ccco1)N1CCN(c2c(Cl)cncc2Cl)CC1 (stereo not given) | 0
N#Cc1cccnc1N1CCN(C(C(=O)NC2CCCC2)c2ccco2)CC1 (stereo not given) | 6
COc1ccc(C2=Nc3ccccc3N(C(=O)c3ccc4ncccc4c3)C2C(=O)NC(C)(C)C)cc1 (stereo not given) | -8
CC(C)c1cc(Cn2c3ccccc3c(=O)n2C(C)Cn2cc(-c3ccccc3)nn2)on1 (stereo not given) | -5
CC1(C(=O)Nc2ccc3c(c2)OCCO3)CSCC(=O)N1CCCn1ccnc1 (stereo not given) | 9
Nc1c(-c2ccc(C(F)(F)F)cc2)nc2ncccn12 | -10
CSCCC(C(=O)NCc1ccccc1)n1c(-c2ccc3c(c2)CCO3)nc2ccccc21 (stereo not given) | -11
O=C(NCc1ccccc1)C(c1ccc(F)cc1)N1CCN(C(=O)C2CCCO2)CC1 (stereo not given) | 21
O=C(NCc1cccc(C(F)(F)F)c1)C1C(=O)Nc2ccccc2C(=O)N1Cc1ccccc1 (stereo not given) | 26

Among those listed so far, these have fluorine.
SMILES | Six1-Eya2 blk
CN1CCN(C(=O)C[C@@H]2C=C[C@H](NS(=O)(=O)c3cccc(F)c3)[C@@H](CO)O2)CC1 | -2
O=C(NCc1ccccc1)C(c1ccc(-c2ccccc2)cc1)N1CCN(c2ccccc2F)CC1 (stereo not given) | 2
Oc1ccc(F)c(CN2CCN(c3ncc(Cc4ccccc4)cn3)CC2)c1 | -8
O=C(NCc1ccccc1)C1C(c2ccc3c(c2)OCO3)=Nc2ccccc2N1C(=O)c1cccc(C(F)(F)F)c1 (stereo not given) | -10
CC(C)c1cn(CC[C@@H]2CC[C@H](NS(=O)(=O)c3ccc(F)cc3)[C@@H](CO)O2)nn1 | -1
COc1ccc(C(C(=O)NC2CCCC2)n2c(Cc3cc(F)cc(F)c3)nc3ccccc32)cc1 (stereo not given) | -4
CC1(C(=O)NCc2ccccc2)CSCC(=O)N1Cc1cccc(F)c1 (stereo not given) | 13
Nc1c(-c2ccc(C(F)(F)F)cc2)nc2ncccn12 | -10
O=C(NCc1ccccc1)C(c1ccc(F)cc1)N1CCN(C(=O)C2CCCO2)CC1 (stereo not given) | 21
O=C(NCc1cccc(C(F)(F)F)c1)C1C(=O)Nc2ccccc2C(=O)N1Cc1ccccc1 (stereo not given) | 26

The results go on.
SMILES | Six1-Eya2 blk
COC(=O)C1=CN(c2cccc(OCc3ccccc3)c2)C(N)=C(C#N)C1c1cccc(OC)c1OC (stereo not given) | -9
O=C(NCc1ccccc1)C(c1cccc2ccccc12)n1c(=O)c(-c2ccco2)nc2ccccc21 (stereo not given) | -2
COc1ccc(C2=Nc3ccccc3N(C(=O)c3cccnc3)C2C(=O)NC(C)(C)C)cc1 (stereo not given) | -10
COC(=O)[C@]12CCCCC=C1N(CCc1ccc(OC)c(OC)c1)C(=O)[C@H](CC(=O)NCCC(C)C)C2 | -11
O=C(NCc1ccccc1)C(c1ccc(F)cc1)N1CCN(c2ccccc2F)CC1 (stereo not given) | 0
COc1ccccc1C(C(=O)c1ccccc1)c1ccc(O)cc1 (stereo not given) | -10
COc1ccc(NC(=O)C(c2ccc(OC)cc2)n2c(=O)c(-c3cc4ccccc4[nH]3)nc3ccccc32)cc1 (stereo not given) | 36
COC(=O)C1(C(=O)OC)c2ccccc2CN(S(=O)(=O)c2ccc(C)cc2)C1CC(C)=O (stereo not given) | -2
CC(C)NC(=O)C1C(c2ccc(C(F)(F)F)cc2)=Nc2ccccc2N1C(=O)c1cccc(C(F)(F)F)c1 (stereo not given) | 0
CCC(C(=O)Nc1c(C)cccc1C)n1c(-c2cc(C)cs2)nc2ccccc21 (stereo not given) | 4
COC(=O)C1=CN(c2ccc(F)cc2)C(N)=C(C#N)C1c1cccc(F)c1 (stereo not given) | 0
O=c1cccc(-c2cccc3ccccc23)o1 | -1
COc1ccc(NC(=O)c2cc(-c3sc(NC(=O)c4ccccc4)nc3C)n(-c3ccc(Br)cc3)n2)cc1 | -3
Cc1cccc(C)c1NC(=O)C(CCc1ccccc1)n1c(=O)c(-c2cc3ccccc3[nH]2)nc2ccccc21 (stereo not given) | 35
O=C(C[C@@H]1C=C[C@H](NC(=O)Cc2ccccn2)[C@@H](CO)O1)NCCc1ccccc1 | 7
COC(=O)C1=CN(c2ccc(Oc3ccccc3)cc2)C(N)=C(C#N)C1c1ccccc1 (stereo not given) | -9
COC(=O)[C@@]12C[C@@H](CC(=O)NCc3ccc(OC)c(OC)c3)C(=O)N(Cc3ccco3)C1=CCC(C)(C)C2 | -6
COc1ccc(CN2C(=O)CN(S(C)(=O)=O)CC2(C)C(=O)Nc2c(C)cccc2C)cc1 (stereo not given) | 5
CC(C)(C)NC(=O)C(c1ccc(C#N)cc1)n1c(=O)c(-c2cc3ccccc3[nH]2)nc2ccccc21 (stereo not given) | 50
CCCCOCCCNC(=O)C[C@@H]1C[C@@]2(C(=O)OC)CC(C)(C)CC=C2N(Cc2ccc3c(c2)OCO3)C1=O | -12
CC(C)C(C(=O)NC1CCCC1)N1CCN(c2ncccc2C#N)CC1 (stereo not given) | 5
COC(=O)[C@@]12C[C@@H](CC(=O)N3CCN(C(=O)C4CC4)CC3)C(=O)N(Cc3cccc4ccccc34)C1=CCC(C)(C)C2 | -9
COc1ccc(C(=O)C(=O)N2CCN(C(=O)OCc3ccccc3)CC2)cc1 | 1
Cc1cccc(C)c1N1C(=O)c2ccccc2NC(=O)C1C(=O)NCC(C)C (stereo not given) | 23
CC1(C(=O)NCc2ccccc2)CN(S(C)(=O)=O)CC(=O)N1CCc1ccccc1F (stereo not given) | 4
COc1ccc(C(=O)C(=O)N2CCC(c3ccccc3)CC2)cn1 | 0
O=C(Nc1ccc(F)cc1)C(c1ccnc2ccccc12)N1CCN(C(=O)c2ccco2)CC1 (stereo not given) | -2
COC(=O)C1(C(=O)OC)C[C@H](c2ccc(OC)cc2)N(Cc2ccccc2OC)[C@@H]1c1ccc(OC)cc1 | -11
O=C(Nc1ccc(F)cc1)C(c1ccncc1)N1CCN(CC(=O)N2CCCC2)CC1 (stereo not given) | 6
COCC(=O)N[C@H]1CC[C@@H](CC(=O)NCc2ccccc2OC)O[C@@H]1CO | -5
COC(=O)C1=CN(c2ccc(N3CCOCC3)cc2)C(N)=C(C#N)C1c1cccc(OC)c1OC (stereo not given) | 6
COC(=O)/C=C1\OCc2cc(OC)c(OC)cc21 | ?
COC(=O)[C@@]12C[C@@H](CC(=O)NCCCN3CCCC3=O)C(=O)N(CCc3ccc(OC)c(OC)c3)C1=CCC(C)(C)C2 | 2
Nc1nc2ccccc2cc1C(=O)NCc1cccs1 | 8
COC(=O)C1=CN(c2ccc(C)cc2)C(N)=C(C#N)C1c1ccccc1F (stereo not given) | -6
CCCCCNC(=O)C(c1ccc(OC)cc1)n1c(=O)c(-c2ccccc2)nc2ccccc21 (stereo not given) | 5
CCOC(=O)[C@]12CCCC=C1N(Cc1ccccc1)C(=O)[C@H](CC(=O)N1CCN(C(=O)c3ccco3)CC1)C2 | 0

Screening data deposited in PubChem BioAssay by National Center for Advancing Translational Sciences (NCATS).
